Compound activity as filed in PubChem.
Six1-Eya2 blk: inhibitors of human Six1/Eya2 interaction; AlphaScreen GST-Six1/His-Eya2 binding, biochemical; stronger effect = lower value; control for the full effect not named in the record; actives 0.56% (n = 360,000); Q15475+O00167; activity change, % (test concentration not listed); in the data active = activity change below about -65%; inconclusive = about -30% to -65%; inactive = above about -30%; note: % is set by controls: 0 for no effect and ±100 for the full control effect; compound concentration not given in the record
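Homogeneous AlphaScreen proximity assay pairing GST-Six1 with His-tagged Eya2 (added as 5X mix: 250 nM and 500 nM) in 50 mM Tris pH 8.0, 300 mM NaCl, 1 mM TCEP. Glutathione donor and nickel acceptor beads; 1 h, 37 °C, dark.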
D2 ag: human D2 receptor agonism in beta-arrestin assay; P14416; DiscoveRx PathHunter D2 beta-arrestin, luminescence, 90 min; 100% = 57 uM dopamine signal; activation, % (test concentration not listed); actives 0.084% (n = 360,000); AID 624465; in the data active = activation above about 40%; inconclusive = about 15% to 40%; inactive = below about 15%; note: compound concentration not given in the record; the text of the record calls up to 30% inactive
Target sequence (P14416 whole entry, looked up): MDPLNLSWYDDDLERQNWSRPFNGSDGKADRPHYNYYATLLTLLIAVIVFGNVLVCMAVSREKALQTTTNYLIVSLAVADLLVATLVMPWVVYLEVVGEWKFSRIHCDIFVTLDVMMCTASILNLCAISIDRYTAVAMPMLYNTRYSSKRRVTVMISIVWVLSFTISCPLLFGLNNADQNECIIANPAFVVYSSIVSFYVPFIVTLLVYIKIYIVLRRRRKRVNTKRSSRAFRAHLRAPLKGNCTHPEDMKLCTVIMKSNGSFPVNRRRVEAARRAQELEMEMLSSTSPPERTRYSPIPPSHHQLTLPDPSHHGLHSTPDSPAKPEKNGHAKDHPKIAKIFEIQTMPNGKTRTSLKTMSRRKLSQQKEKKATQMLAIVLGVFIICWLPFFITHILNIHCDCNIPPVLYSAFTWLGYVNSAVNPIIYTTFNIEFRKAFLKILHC
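DiscoveRx PathHunter D2 beta-arrestin cells (2,100/well) attached overnight, then compound-stimulated 90 min at 37 C in HBSS/10 mM HEPES/0.1% Tween-20 buffer; beta-galactosidase complementation read by luminescence after 1 h at ambient temperature. Dopamine 57 uM final (EC100) as control.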
D2 PAM: human D2 receptor positive allosteric modulation; DiscoveRx D2 beta-arrestin cells, luminescence, 90 min; 100% = 57 uM dopamine signal; P14416; actives 0.23% (n = 360,000); potentiation, % (concentration not given with the values); active = potentiation of 50% or more; inconclusive = 30% to 50%; inactive = 30% or less;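 note: compound concentration not given in the record; tested on top of an EC20 dose of dopamine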
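D2 cells co-treated with compound plus 50 nM dopamine (EC20) for 90 min at 37 deg C to detect potentiation. Beta-arrestin recruitment was read as enzyme-fragment luminescence after 1 h at ambient temperature. Full response was set by 57 uM dopamine.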
PINK1 expr mod: modulators of PINK1 expression; PINK1 immunofluorescence, high-content cytometry, 24 h; Potency, µM (highest dose often 76.6 µM), inactives show top-dose activation (PINK1 increase), hits mostly activators; actives 0.2% (n = 410,000); active = well fitted activation curve with a large enough effect; inconclusive = small, poorly fitted or top-dose-only effect; inactive = flat fitted curve, though single readings scatter; cell line not stated here;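 note: potency is the fitted concentration of half-maximal effect; % of control where 0% means no effect; nearly all actives have a fitted effect of over 65% in size; a mitochondrial uncoupler was the plate control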
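PINK1 protein, normally rapidly degraded, was detected by immunofluorescence after 24 hour compound treatment of a stable cell line. Titration data (5 concentrations) came from laser-scanning cytometry, with CCCP-treated wells as controls.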
CtBP-E1A inh: CtBP/E1A binding inhibition | AlphaScreen GST-E1A/His-CtBP binding, 1536-well; stronger effect = lower value; control for the full effect not named in the record | activity change, % (concentration not given with the values) | actives 0.49% (n = 340,000); in the data active means activity change below about -65%; inconclusive means about -30% to -65%; inactive means above about -30%; note: % is set by controls: 0 for no effect and ±100 for the full control effect
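Homogeneous bead-based format: GST-tagged E1A captured on glutathione donor beads, His-tagged CtBP on nickel acceptor beads; compounds precede bead addition by 2 h at 37 °C.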
TRPML1 ag: agonists of human TRPML1 channel | Q9GZU1 | TRPML1-expressing cells, Ca2+ dye fluorescence, FDSS; host cell line not named in the record; reference of the full effect not given here | activation, % (concentration not given with the values) | actives 0.12% (n = 410,000) | AID 624414; in the data active = activation above about 50%; inconclusive = about 30% to 50%; inactive = below about 30%; note: 0% is about no effect; the text of the record puts the active cut at 80%
Target sequence (Q9GZU1 whole entry, looked up): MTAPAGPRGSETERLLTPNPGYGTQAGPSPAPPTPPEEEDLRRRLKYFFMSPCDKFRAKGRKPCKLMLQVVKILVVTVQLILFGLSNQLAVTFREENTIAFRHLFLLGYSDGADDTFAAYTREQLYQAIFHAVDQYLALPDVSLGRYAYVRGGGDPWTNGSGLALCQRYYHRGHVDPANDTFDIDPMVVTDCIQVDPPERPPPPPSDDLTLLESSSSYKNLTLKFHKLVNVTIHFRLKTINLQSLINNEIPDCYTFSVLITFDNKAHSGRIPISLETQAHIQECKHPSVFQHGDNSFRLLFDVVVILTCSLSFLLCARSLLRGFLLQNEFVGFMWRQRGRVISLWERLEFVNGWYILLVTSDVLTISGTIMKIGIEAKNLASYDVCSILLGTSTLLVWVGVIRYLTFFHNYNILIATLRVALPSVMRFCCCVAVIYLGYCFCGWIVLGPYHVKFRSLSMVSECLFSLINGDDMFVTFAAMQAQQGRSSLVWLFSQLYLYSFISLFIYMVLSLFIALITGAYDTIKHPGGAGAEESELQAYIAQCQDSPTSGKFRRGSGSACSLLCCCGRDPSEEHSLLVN
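Kinetic FDSS Ca2+ read in Tet-induced TRPML1-DL cells (ABD Ca8 dye plus quencher, 45-90 min RT loading): baseline, then compound, then 110 s agonist window; EC80 agonist 54-4 at 4uM final added afterwards for a 110 s antagonist window.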
An asterisk follows results filed as active; ? = inconclusive; . = not tested or not shown; [ ] = another dose, or the depositor's remark. Outcome played no part in choosing rows; about 1.3% have a hit in one of these screens.

SMILES	Six1-Eya2 blk	D2 ag	D2 PAM	PINK1 expr mod	CtBP-E1A inh	TRPML1 ag
COc1ccccc1Nc1ncccc1C(=O)NCc1ccccc1	-2	-1.2	-13	12%[38.3 µM]	-6	0.1
Cc1ccccc1CNC(=O)C1CCC(=O)N(C2CCCCCC2)C1 (stereo not given)	-6	-2.6	-20	-0.6%	4	-0.4
NS(=O)(=O)c1ccc(CCNC(=O)COC(=O)C2CCN(c3ccc(C(F)(F)F)cn3)CC2)cc1	1	0.8	-16	4.0%	3	0.8
CC1(C(=O)OCc2cc(=O)n3cc(Br)ccc3n2)CC1(Cl)Cl (stereo not given)	0	3.2	7	-1.8%	1	1.7
COc1ccc(CN2CCNC(=O)C2CC(=O)N(C)CCC2CCOCC2)cc1OC (stereo not given)	7	2.6	-4	0.1%	0	0.6
CCOC(=O)C1CCCCN1Cc1cc(Cl)ccc1O (stereo not given)	19	-0.5	-9	5.2%[38.3 µM]	32	2.5
CC(OC(=O)c1ccc(NC(=O)CC#N)cc1)C(=O)NC(c1ccccc1)c1ccccc1 (stereo not given)	-2	3.5	8	?	2	1.8
CN(C)C(/C=C/Nc1ccc([N+](=O)[O-])cc1)=C(C#N)C#N	-10	-0.2	-3	?	-1	1.9
CCOc1cc(/C=N/Nc2nc(=O)[nH]nc2C)ccc1O	?	-3.6	-3	-0.1%	?	1.5
CCC(=O)c1ccc(OCC(=O)OCC(=O)Nc2c(C)n(C)n(-c3ccccc3)c2=O)cc1	0	-4.8	-17	-1.7%	12	-0.6

Ordered by the number under Six1-Eya2 blk (high to low): some entries from above
SMILES,Six1-Eya2 blk
CCOC(=O)C1CCCCN1Cc1cc(Cl)ccc1O (stereo not given),19
COc1ccc(CN2CCNC(=O)C2CC(=O)N(C)CCC2CCOCC2)cc1OC (stereo not given),7
COc1ccccc1Nc1ncccc1C(=O)NCc1ccccc1,-2
Cc1ccccc1CNC(=O)C1CCC(=O)N(C2CCCCCC2)C1 (stereo not given),-6

Carrying on.
SMILES	Six1-Eya2 blk	D2 ag	D2 PAM	PINK1 expr mod	CtBP-E1A inh	TRPML1 ag
Cc1c(Cl)cccc1-c1ccc(C(=O)N2CCN(c3ccc([N+](=O)[O-])cc3)CC2)o1	-4	-1.6	-32	-0.1%	-2	-0.6
COc1ccccc1NS(=O)(=O)c1cccc(C(=O)N/N=C(/C)c2ccc(-n3ccnc3)cc2)c1	3	-1.6	-23	4.5%	0	2.3
O=C(COC(=O)c1cnccn1)c1ccccc1	6	-3.2	-10	0.0%	-2	0.9
COCCN1CCn2c(nc3cc(Nc4nnc(C)c5ccccc45)ccc32)C1	-4	-6.2	-5	1.6%	.	0.2
CCOC(=O)c1c(C)n(-c2ccc(C)cc2)c2ccc(OCC(O)CN3CCN(C)CC3)cc12 (stereo not given)	-20	-4.8	-21	-2.1%	-16	-0.7
Cc1ccc(-c2nc(-c3ccccn3)no2)cc1	5	-1.2	-8	-0.9%	12	0.7
COc1ccc(C(=O)Nc2cccc(-c3ccc(N4CCOCC4)nn3)c2)cc1OC	-13	-2.2	-6	3.8%	2	-1.0
Nc1nnc(Sc2ccc(Cl)cc2[N+](=O)[O-])s1	-9	-0.2	0	3.1%	13	3.1
COc1ccccc1CC(=O)NCCN1CCCCC1	3	2.6	-6	-0.3%	10	0.1
COc1cccc2cc(C(C)N(CCCN3CCOCC3)C(=O)Nc3ccc(Cl)cc3)oc12 (stereo not given)	-8	-1.8	-37	-2.3%	-12	-0.6
O=C(Nc1ccc(NS(=O)(=O)c2ccccc2)cc1)c1ccccc1Cl	3	?	-6	-0.3%	7	1.2
COc1ccc(-c2nnc(SCC(=O)N(Cc3ccccc3)C(C)(C)C)o2)cc1OC	3	5.7	-2	3.9%	3	1.2
CCOc1ccc(S(=O)(=O)Nc2ccc(C(=O)NCC(c3ccco3)N(C)C)cc2)cc1 (stereo not given)	-1	-2.1	-26	0.0%	10	4.2
CCN(CC(=O)Nc1ccc(NC(C)=O)cc1)C(=O)C(c1ccccc1)c1ccccc1	0	-0.7	-4	1.3%	.	0.4
O=C(C1CCC(=O)N1C1CCCCC1)N1CCN(c2ccc(F)cc2)CC1 (stereo not given)	1	-0.3	-15	.	-7	-0.5
Cc1c(C)n(Cc2ccccc2)c2ncnc(NCCO)c12	3	-2.6	-1	4.6%	-9	0.3
CSCCC(NC(=O)c1cncc(Br)c1)C(=O)O (stereo not given)	-8	-1.7	-8	-0.3%[38.3 µM]	-4	0.3
Cc1cc(=O)[nH]c2c1cnn2C(C)c1ccccc1 (stereo not given)	-3	1.6	-19	2.3%	.	1.9
CNC(=S)N1N=C(c2ccc(Br)cc2)CC1c1ccc(Br)cc1 (stereo not given)	-11	-3.9	-10	-2.5%	-6	-0.4
Cn1c(-c2ccccc2[N+](=O)[O-])[n+](C)c2ccccc21	9	-1.2	-13	1.1%	.	-0.3
CC(C)Cn1c(=O)c2ccccc2n2c(CCC(=O)NC3CCN(Cc4ccccc4)CC3)nnc12	4	-0.7	-16	1.7%	9	-0.3
O=C(NNc1c(Cl)cccc1Cl)C1CCC1	8	-3.9	-12	-1.3%	0	-0.7
CCCOc1ccc(C(=O)NCc2ccco2)cc1	-1	-0.8	-11	-1.8%	1	1.0
COc1ccc(CCNC(=O)C/C(C)=N/NC(=O)C(c2ccccc2)c2ccccc2)cc1OC	-5	-2.0	-4	-1.0%	-4	1.8
CC1CCCC(C)N1C(=O)COC(=O)c1ccccc1O (stereo not given)	-6	-4.0	-7	-2.7%	-7	2.6
O=C(NCCc1ccccc1)c1ccc2c(c1)S(=O)(=O)N=C1CCCCCN12	-3	-4.2	-8	1.7%	.	-0.5
COc1c(Cl)cccc1-c1cn2ccc(C)cc2n1	-7	2.6	-6	0.6%	-8	0.2
CC(Cc1c[nH]c2ccccc12)C(=O)N1CCN(c2ccccc2F)CC1 (stereo not given)	-14	-0.6	-4	-0.7%	-7	1.2
CC(CCc1ccccc1)NC(=O)c1ccc(Br)cc1 (stereo not given)	10	-1.0	-13	-0.5%	16	-0.5
COC(=O)c1[nH]c2ccc(F)cc2c1NS(=O)(=O)c1ccc(F)c(C)c1	5	-4.0	2	3.4%	4	-0.3
CS(=O)(=O)Nc1ccc(C2=NN(C(=O)C3CCCCC3)C(c3cccs3)C2)cc1 (stereo not given)	-3	2.8	-3	-3.6%	3	1.6
CN(C)S(=O)(=O)c1cccc(NC(=S)NCc2ccc3c(c2)OCO3)c1	-1	-3.8	-6	2.9%	.	0.3
COCCCn1cc(CN2CC(N3CCCCC3)CS2(=O)=O)nn1 (stereo not given)	-4	.	.	-0.2%	0	0.0
CCCC(=O)NC(=S)Nc1cccc(NC(=O)c2ccccc2)c1	0	2.2	-9	-1.5%	2	1.5
COc1ccccc1NS(=O)(=O)c1cc(NC(=O)CCNC(C)=O)ccc1N1CCCCC1	5	-0.7	-13	-3.0%	-1	0.2
Cc1cc(C)c(S(=O)(=O)NCc2ccc3c(c2)OCO3)cc1C	0	-2.8	-1	0.1%	10	2.0
COc1cc(S(=O)(=O)NCC(c2ccco2)N2CCCCC2)ccc1NC(C)=O (stereo not given)	5	0.3	-1	0.7%	-1	0.1
O=C(c1ccc(=O)[nH]c1)N1CCN(S(=O)(=O)c2ccccc2)CC1	3	-3.8	0	0.2%	6	0.9
CCOc1ccc(N(CC(=O)N/N=C/c2cccnc2)S(C)(=O)=O)cc1	-1	8.2	6	0.4%	4	-0.8
Cc1ccc(C(=O)NC2CCN(S(=O)(=O)c3ccc(F)cc3)CC2)cc1	15	-5.0	-2	10%	-4	1.4
CCc1nc2ccc(C(=O)Nc3ccc(Cl)c(Cl)c3)cn2c1N(C)Cc1ccc(OC)cc1	-9	14	-4	3.7%	-3	0.0
CC1(C(=O)NS(=O)(=O)c2cccc(F)c2)CCN1C(=O)Cc1ccccc1Cl (stereo not given)	7	6.4	-2	-0.8%	-1	-0.3
O=C1c2ccccc2C(=O)N1CSc1nnnn1-c1ccccc1	2	-0.4	-7	2.3%	5	-0.2
CCCCN(C(=O)c1cccc(S(=O)(=O)N(CC)c2ccccc2)c1)c1c(N)n(CCCC)c(=O)[nH]c1=O	1	-1.7	-2	16%	-14	-0.1
COc1cccc(N2C(=O)C3C(C2=O)C2C=CC3C23CC3)c1 (stereo not given)	-1	-3.8	3	1.8%	-2	-0.7
Cc1cccc2cc(C#N)c(SCC(=O)NCc3cccs3)nc12	-6	-1.8	-3	-0.9%	.	-0.2
CC1(C)CN(c2cccc(Br)c2)C1=O	6	-0.3	-7	1.4%	14	-0.1
O=C1NC(=O)C2C1C(c1cccs1)NN2Cc1ccccc1 (stereo not given)	-6	-5.4	-6	1.7%	-12	-0.1
CC(C)CNC(=O)c1nc(-c2ccccc2)n(-c2ccccc2)n1	-19	-2.0	2	-2.0%	-23	-1.5
CCOC(=O)CC(=O)CSc1nc(CC)c(C)cc1C#N	3	-1.0	-5	6.5%	2	0.4
Additional entries:
SMILES	Six1-Eya2 blk	D2 ag	D2 PAM	PINK1 expr mod	CtBP-E1A inh	TRPML1 ag
c1csc(CNc2nc3ccccc3n2CCN2CCOCC2)c1	2	-2.0	8	2.7%	7	-0.6
COc1ccc(Cl)cc1NC(=O)CSc1nnc(COc2ccccc2)n1C	-1	0.7	-22	?	1	0.7
Cc1cccc2sc(NC(=O)CNS(=O)(=O)c3ccc(Br)s3)nc12	-2	0.5	4	5.1%[38.3 µM]	-2	0.6
CS(=O)(=O)N(CC(=O)N1CCOCC1)c1cccc(F)c1	8	5.1	0	0.8%	9	0.3
Cc1cccc(NC(=O)Cn2c(=O)n(Cc3ccco3)c(=N)c3c4c(sc32)COC(C)(C)C4)c1	-18	-2.2	-8	0.0%	-2	1.6
COC(=O)c1ccc(NC(=O)CN2C(=O)CSC2=O)cc1	-13	-4.8	-9	-3.3%	-17	0.1
CC(=O)c1ccc(OCc2cc(C(=O)NC(C)CCn3cccn3)no2)cc1 (stereo not given)	-1	-2.6	-18	3.1%	-2	0.2
Cc1cc2cc3c(cc2nc1SCc1ccccn1)OCCO3	3	0.4	-10	8.5%	11	3.5
O=C(CSc1nc(-c2ccc(F)cc2)cc(C(F)(F)F)n1)NCCN1CCOCC1	-4	-4.0	-7	1.4%	2	-0.8
COc1ccc(Nc2oc(-c3cccs3)nc2C#N)cc1	-11	8.1	62*	9.1%	-3	1.0
O=C1c2cccc3cccc(c23)C(=O)N1CCCN1CCN(c2ccc(F)cc2)CC1	?	-2.5	-24	1.9%	-18	0.7
Cn1c(SCC(=O)c2ccc3c(c2)OCO3)nnc1-c1ccccn1	-3	-2.0	8	-0.3%	0	0.5

Just Six1-Eya2 blk and PINK1 expr mod, for four of the compounds above:
canonical_smiles,Six1-Eya2 blk,PINK1 expr mod
CSCCC(NC(=O)c1cncc(Br)c1)C(=O)O (stereo not given),-8,-0.3%[38.3 µM]
Cc1cc(=O)[nH]c2c1cnn2C(C)c1ccccc1 (stereo not given),-3,2.3%
CNC(=S)N1N=C(c2ccc(Br)cc2)CC1c1ccc(Br)cc1 (stereo not given),-11,-2.5%
Cn1c(-c2ccccc2[N+](=O)[O-])[n+](C)c2ccccc21,9,1.1%
